# Assay outcomes (PubChem BioAssay)
# TRPML1 agonist: agonists of human TRPML1 channel | Q9GZU1 | TRPML1-expressing cells, Ca2+ dye fluorescence, FDSS; host cell line not named in the record; reference of the full effect not given here | activation, % (test concentration not listed) | 0.12% of 410,000 active | AID 624414; in the data active = activation above about 50%; inconclusive = about 30% to 50%; inactive = below about 30%; further: 0% is about no effect; the text of the record puts the active cut at 80%
#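 In this qHTS format, compounds were pin-transferred onto Ca8-dye-loaded TRPML1-DL cells induced with Tet overnight, and intracellular Ca2+ fluorescence was recorded kinetically for 110 s after a 10 s baseline. A subsequent 4uM final 54-4 (EC80) addition followed by a second 110 s read served as the antagonist phase.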
# TRPV1 potentiator: enhances activation of the human vanilloid receptor TRPV1; potentiation, % at 8.33 µM; 0.02% of 320,000 active; AID 540277; TRPV1-expressing cells, Fluo-8 calcium influx, capsaicin EC20 potentiation; host cell line not named in the record; control for the full effect not named in the record; active means potentiation above 80%; inconclusive means 30% to 80%; inactive means below 30%; further: 0% is about no effect
# Target sequence (Q8NER1 whole entry, looked up): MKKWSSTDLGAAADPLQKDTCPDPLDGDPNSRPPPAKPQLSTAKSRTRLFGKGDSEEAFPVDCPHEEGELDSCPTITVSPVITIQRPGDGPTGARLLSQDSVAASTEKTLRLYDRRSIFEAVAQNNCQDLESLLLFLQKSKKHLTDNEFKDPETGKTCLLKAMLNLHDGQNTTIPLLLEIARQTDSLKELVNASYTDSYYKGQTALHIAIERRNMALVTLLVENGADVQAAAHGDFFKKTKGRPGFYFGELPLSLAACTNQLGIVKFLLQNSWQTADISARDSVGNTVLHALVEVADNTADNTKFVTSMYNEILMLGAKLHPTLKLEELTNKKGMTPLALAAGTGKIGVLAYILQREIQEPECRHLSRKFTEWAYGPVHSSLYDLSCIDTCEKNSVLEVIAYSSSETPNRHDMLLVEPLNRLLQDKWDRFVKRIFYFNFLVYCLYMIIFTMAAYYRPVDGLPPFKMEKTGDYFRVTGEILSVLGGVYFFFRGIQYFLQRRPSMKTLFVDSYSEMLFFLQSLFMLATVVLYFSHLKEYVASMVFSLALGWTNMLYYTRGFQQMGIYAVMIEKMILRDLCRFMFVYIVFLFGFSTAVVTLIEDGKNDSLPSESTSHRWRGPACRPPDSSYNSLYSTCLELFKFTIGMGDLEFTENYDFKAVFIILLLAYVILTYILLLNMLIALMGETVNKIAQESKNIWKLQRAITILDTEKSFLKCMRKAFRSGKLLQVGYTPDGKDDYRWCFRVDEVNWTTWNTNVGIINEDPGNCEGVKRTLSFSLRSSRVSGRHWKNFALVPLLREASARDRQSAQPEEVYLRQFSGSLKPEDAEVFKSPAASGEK
#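 Cells expressing TRPV1 were dye-loaded with Fluo-8 and read kinetically: 10 s baseline, 3 min after compound (agonist portion), then 2 min after EC20 capsaicin (allosteric enhancer portion). Calcium-bound dye fluorescence at 480/520 nm.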
# Menin-MLL FL inh: inhibitors of human menin-MLL interaction, wild-type MLL peptide; Fluorescence polarization, fluorescein-MLL peptide displacement from menin; FP activity change, % at 61.4 µM; 290,000 tested, under 10 active; inconclusive = falling polarisation curve, or a change in total fluorescence; inactive = total fluorescence flat and polarisation flat or rising; no compound was filed as active; the % refers to the polarisation; negative = inhibition;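 further: % of control where 0% means no effect; inhibitors lower the polarisation; unlabelled MLL peptide was the positive control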
# ClpP mod: qHTS Assay for Activators of ClpP; purified B. subtilis ClpP, FRET peptide cleavage, 20 min; ATP-dependent Clp protease proteolytic subunit (Bacillus subtilis (strain 168)), P80244; Potency, µM (titrated, usually from 57.5 µM), without a hit: at the highest dose activity change, negative = active; 1.9% of 340,000 active; AID 651965, 2013; active = well fitted falling curve with a large enough effect; inconclusive = small, poorly fitted or top-dose-only effect; inactive = no such curve, though single readings can be large or run the other way; further: potency means the concentration at half of the fitted maximal effect; the source files actives as falling curves though it sought activators and does not explain the sign; nearly all actives have a fitted effect of over 65% in size; many hits overshoot -100%
# Target sequence (P80244 whole entry, looked up): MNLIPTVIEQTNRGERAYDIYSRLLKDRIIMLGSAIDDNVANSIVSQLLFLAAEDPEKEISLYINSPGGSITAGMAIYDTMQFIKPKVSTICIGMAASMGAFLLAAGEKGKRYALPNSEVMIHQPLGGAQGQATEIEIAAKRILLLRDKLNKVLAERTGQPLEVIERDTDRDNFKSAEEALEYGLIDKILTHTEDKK
#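 Buffer: 100 mM Tris/HCl pH8, 100 mM KCl, 0.05% low protease BSA, 2.5% glycerol, 0.01% Tween-20. ClpP 10 microg/mL final; 20 min RT; delta FRET normalized to ADEP and DMSO controls.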
# Sfp inh: Sfp phosphopantetheinyl transferase inhibition; Q9F4F7; Biochemical Sfp PPTase activity, qHTS; Potency, µM, without a hit: max response, negative = inhibition, actives largely listed as inhibitors; 3.5% of 310,000 active; AID 1490; active means well fitted inhibition curve with a large enough effect; inconclusive means small, poorly fitted or top-dose-only effect, or another doubt; inactive means no such curve, though single readings can be large or run the other way;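 further: the enzyme is Sfp with the accession as filed and its product quenches rhodamine fluorescence; potency means the concentration at half of the fitted maximal effect; 0% = enzyme reaction without inhibitor and -100% = no enzyme wells; top concentration of the series not given in the record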
#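 Fluorescence-quenching assay with 15 nM Sfp, 5 uM rhodamine-CoA and 12.5 uM BHQ-2-labelled ybbR peptide in pH 7.6 Hepes/MgCl2 buffer. Enzyme was pre-incubated with compound for 15 min at room temperature. Rate was taken from the 30-min fluorescence change (525/598 nm).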
# PINK1 modulator: PINK1 expression modulation. PINK1 immunofluorescence, high-content cytometry, 24 h. Potency, µM (top dose mostly 76.6 µM), without a hit: at the highest dose activation (PINK1 increase), most hits filed as activators. 0.2% of 410,000 active. AID 624263; active = well fitted activation curve with a large enough effect; inconclusive = small, poorly fitted or top-dose-only effect; inactive = flat fitted curve, though single readings scatter; cell line not stated here;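 further: potency means the concentration at half of the fitted maximal effect; % of control where 0% means no effect; nearly all actives have a fitted effect of over 65% in size; a mitochondrial uncoupler was the plate control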
#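 Stable cell line treated 24 h with compounds at 5 concentrations (CCCP controls), then fixed and immunostained for PINK1 plus nuclear and cell stains; PINK1 immunofluorescence quantified by laser-scanning microplate cytometry.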
# TRPML1 inh: inhibitors of human TRPML1 channel. activity change, negative = inhibition, % (no concentration beside the values). 0.02% of 390,000 active. TRPML1-inducible cells, Ca2+ dye fluorescence, FDSS; active compounds read low; inhibition of EC80 agonist-evoked calcium signal; in the data active means activity change below about -50%; inconclusive means about -30% to -50%; inactive means above about -30%;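 further: stimulus is agonist 54-4 at its EC80 concentration; on the % scale 0 is the no-effect control and ±100 the full control effect; compound concentration not given in the record; the text of the record puts the active cut at -80%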
#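 TRPML1-DL cells, Tet-induced overnight (~16 h, 37 °C) at 1,500 cells/well, were loaded with Ca8 no-wash dye plus quencher for 45-90 min at room temperature. Compounds were pinned during FDSS kinetic reading; agonist 54-4 at EC80 (4 uM final) then added.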
# The depositor's hits bear a star; ? = inconclusive; nt = not tested or not shown; & = joins results of further samples; [ ] = remark or other dose.
compound,TRPML1 agonist,TRPV1 potentiator,Menin-MLL FL inh,ClpP mod,Sfp inh,PINK1 modulator,TRPML1 inh
O=C(Cn1c(=O)[nH]c2ccccc2c1=O)N1CCN(Cc2ccc3c(c2)OCO3)CC1,0.5,7.6,-2.6,3.6%,2.3%,-0.3%,-20.4
COc1ccc(/C=N/NC(=O)CCn2nnc3ccccc32)cc1,0.9,1.3,-2.5,1.1%,6.8%,-0.3%,5.0
Cc1cc(=O)oc2cc(OCC(=O)N3CCN(C(=O)C4COc5ccccc5O4)CC3)ccc12 (configuration not stated),1.0,10.6,nt,3.0%,-2.0%,0.5%,16.0
COc1ccccc1CNC(=O)C(=O)Nc1ccc(C(=O)N2CCC(C)CC2)cc1,0.9,-7.8,3.3,nt,3.5%,-0.2%,26.6
N/C(Cc1cccc2ccccc12)=N\OC(=O)c1ccc2c(c1)OCO2,3.3,4.6,-1.3,-3.7%,20.4%,0.5%,-10.7
CN1C(c2ccc(F)cc2)=CS/C1=C(/C#N)c1nnc(N2CCOCC2)n1-c1ccccc1,0.3,?,0.7,-1.9%,-23.8%,2.1%,-15.7
COc1cccc(-c2nnn(CCc3nn[nH]n3)n2)c1,-0.9,-8.9,-2.1,1.6%,-1.6%,2.9%,10.7
O=C1CC(NCc2ccncc2)C(=O)N1c1ccccc1 (configuration not stated),-0.4,4.8,10.7,-2.3%,-1.0%,-2.5%,-10.9
O=C(Cn1c(=O)n(-c2ccccc2)c(=O)n1CC(=O)N1CCCCC1)N1CCCCC1,-0.1,-3.1,1.6,-1.2%,7.6%,-7.4%[38.3 µM],-8.9
COc1ccc(CSCC(=O)Nc2ccccc2SC)cc1,0.1,-32.9,3.8,1.3%,-2.7%,0.5%,9.5
CCOc1ccc(C2Nc3ccccc3NC3=C2C(=O)CC(C)(C)C3)cc1OC (configuration not stated),0.3,6.7,-0.1,16.2%,6.4%,1.9%,-3.6
CNS(=O)(=O)c1cccc(C(=O)OCC(=O)Nc2ccccc2OC(F)F)c1,1.0,-3.0,3.0,1.0%,-6.9%,0.5%,-0.8
O=C(CN(C(=O)c1csnn1)c1ccccc1C(F)(F)F)NCc1ccccc1,-0.7,-1.9,-0.6,nt,1.1%,-2.2%,4.4
O=C1CN(C(=O)NCC(=O)N[C@@H](C(=O)O)c2ccccc2)c2ccccc2N1,4.1,8.8,-17.3,-1.5%,13.1%,0.0%,34.3
O=C(COc1ccccc1)Nc1ccc2nc(SCC(=O)N3CCCC3)sc2c1,1.2,nt,nt,-2.1%,nt,-0.8%,36.1
Cc1cn([C@H]2C[C@H](O)[C@@H](CNS(=O)(=O)N3CCCC3)O2)c(=O)[nH]c1=O,0.8,nt,nt,-0.9%,nt,-1.0%,5.5
O=C(O)/C=C/c1ccc2c(c1)OCCO2,-0.8,15.4,-1.7,-16.7%,-10.8%,0.4%,-0.5
Cc1ccc(C(=O)N2CCN(c3ncnc4c(C)csc34)CC2)cc1,0.3,-18.6,2.9,nt,-0.2%,0.1%,18.6
Cc1ccc(OCCSc2nc3ccc(NC(=O)c4ccc5c(c4)OCO5)cc3s2)cc1,-0.5,nt,nt,1.0%,nt,2.6%,5.9
COC(=O)c1[nH]c2ccccc2c1NS(=O)(=O)c1ccc(F)c(C)c1,-0.2,-12.7,0.2,-11.0%,2.3%,0.0%,-2.7
O=C(NCc1cccs1)C1Cc2c(-c3ccc(Cl)cc3)ccnc2O1 (configuration not stated),-0.4,nt,nt,-7.2%,nt,4.6%,-14.1
Cc1ccc(NC(c2nnc(-c3ccccc3)o2)c2ccccc2F)c([N+](=O)[O-])c1 (configuration not stated),2.2,nt,nt,-2.1%,nt,0.0%,35.4
CCCCCc1c(-c2ccccc2)ncn1CCc1ccccc1OC,-0.7,nt,nt,2.1%,nt,?,nt
O=C(Nc1ccc(N2CCCC2)cc1)C(c1ccccc1)c1ccccc1,0.4,9.4,2.0,-1.9%,50.1µM*,2.7%,-4.0
Cc1nnc(SCC(=O)Nc2ccccc2)n1CCc1ccccc1,-0.5,2.6,0.6,0.7%,12.2%,2.3%[38.3 µM],-5.6

# Reprinted from the listing (eight entries):
compound,TRPML1 agonist,TRPV1 potentiator,Menin-MLL FL inh,ClpP mod,Sfp inh,PINK1 modulator,TRPML1 inh
O=C(Cn1c(=O)[nH]c2ccccc2c1=O)N1CCN(Cc2ccc3c(c2)OCO3)CC1,0.5,7.6,-2.6,3.6%,2.3%,-0.3%,-20.4
COc1ccc(/C=N/NC(=O)CCn2nnc3ccccc32)cc1,0.9,1.3,-2.5,1.1%,6.8%,-0.3%,5.0
Cc1cc(=O)oc2cc(OCC(=O)N3CCN(C(=O)C4COc5ccccc5O4)CC3)ccc12 (configuration not stated),1.0,10.6,nt,3.0%,-2.0%,0.5%,16.0
COc1ccccc1CNC(=O)C(=O)Nc1ccc(C(=O)N2CCC(C)CC2)cc1,0.9,-7.8,3.3,nt,3.5%,-0.2%,26.6
N/C(Cc1cccc2ccccc12)=N\OC(=O)c1ccc2c(c1)OCO2,3.3,4.6,-1.3,-3.7%,20.4%,0.5%,-10.7
CN1C(c2ccc(F)cc2)=CS/C1=C(/C#N)c1nnc(N2CCOCC2)n1-c1ccccc1,0.3,?,0.7,-1.9%,-23.8%,2.1%,-15.7
COc1cccc(-c2nnn(CCc3nn[nH]n3)n2)c1,-0.9,-8.9,-2.1,1.6%,-1.6%,2.9%,10.7
O=C1CC(NCc2ccncc2)C(=O)N1c1ccccc1 (configuration not stated),-0.4,4.8,10.7,-2.3%,-1.0%,-2.5%,-10.9

# (listing goes on)
compound,TRPML1 agonist,TRPV1 potentiator,Menin-MLL FL inh,ClpP mod,Sfp inh,PINK1 modulator,TRPML1 inh
Cn1c(SCC(=O)Nc2ccccc2F)nnc1C1CCCCC1,0.1,4.1,nt,-1.9%,15.0%,-1.2%,2.5
COc1ccc(-c2cc(=O)oc3c(C)c(OCc4nn[nH]n4)ccc23)cc1,-0.3,-3.6,6.5,-16.0%,2.5%,0.0%,-16.2
COc1ccc(-n2c(SCC(=O)Nc3cc(C)on3)nc3c([nH]c4ccccc43)c2=O)cc1,0.3,-7.5,-4.0,?,13.9%,12.1%,27.0
COC(=O)C1=COC(C)C2CN3CCc4c([nH]c5cc(OC)c(OC)cc45)C3CC12 (configuration not stated),nt,-0.8,?,1.5%,3.2%,6.8%,nt
CCOC(=O)C1=CCN(S(=O)(=O)c2ccc(C)cc2)C1c1cccc2ccccc12 (configuration not stated),1.9,nt,nt,-0.6%,nt,0.3%,-13.2
Fc1ccc(-c2nnn(Cc3nc4ccccc4s3)n2)cc1,1.6,-7.6,-1.4,-5.5%,-18.1%,-0.6%,-8.6
CCn1c(C)c(C(C)=O)c(N2CCN(c3cccc(Cl)c3)CC2)nc1=S,-0.9,25.2,?,12.1%,-14.8%,0.3%,22.8
Cc1nc(OCC(C)C)c2sc3nc4c(cc3c2n1)COC(C)(C)C4,0.3,0.7,2.4,nt,10.2%,0.9%,-3.8
COc1ccc(C2CC(=O)NC(=O)C2)cc1,1.2,-4.3,-11.8,nt,8.6%,0.0%,14.9
COc1ccc(C(=O)ON=C2CCN(c3ccc([N+](=O)[O-])cc3)CC2)cc1,1.3,-14.6,2.1,-0.6%,-3.8%,0.6%[38.3 µM],-0.5
CCOC(=O)C1(Cc2ccc(OC)cc2)CCN(C(=O)CCn2ccc(C)n2)CC1,1.7,7.3,-3.7,nt,5.5%,0.2%,-16.2
COCCOc1cc(NC(=O)c2sccc2Oc2ccc([N+](=O)[O-])cc2F)c(Cl)cc1Cl,-0.1,0.4,-2.9,14.1µM*,1.2%,0.2%,60.1
O=C(N/N=C/C1CC=CCC1)c1cc(-c2cccnc2)nc2ccccc12 (configuration not stated),-0.2,7.2,-4.6,nt,21.9%,0.9%,17.1
C=CCCC(=O)N1C[C@H]2CON(C)[C@H]2C[C@H]1c1cccc(Nc2ccccc2)c1,1.8,nt,nt,-13.2%,nt,-1.1%,11.0
Cc1ccc(S(=O)(=O)N2CCN(C(=O)CN3CCOCC3)C2c2ccccc2)cc1 (configuration not stated),0.5,4.4,2.5,-3.6%,-3.5%,-1.6%,-14.1
O=C1CNC(=O)N1,-0.7,3.6,-6.8,0.4%,9.6%,1.0%,-18.3
CCOC(=O)C1CCCN(C(=O)C2c3ccccc3Oc3ccccc32)C1 (configuration not stated),-0.5,-10.3,-1.0,-5.7%,1.9%,0.0%,-9.3
CN(CC(=O)Nc1ccc(Cl)c(C(F)(F)F)c1)C(=O)COC(=O)C1CC2CCCC(C1)C2=O (configuration not stated),0.9,nt,nt,nt,nt,4.2%,-18.9
Cc1cc(F)ccc1NC(=O)c1cc(S(=O)(=O)N2CCc3ccccc32)cn1C,-0.2,?,2.4,3.1%,-3.1%,3.5%,2.9
CC(C)c1nnc(NC(=O)c2cc3ccccc3o2)s1,1.5,-15.0,-13.8,nt,12.0%,4.3%,6.9
Cc1cc(SC(C)C(=O)O)nc2ccccc12 (configuration not stated),1.4,5.8,0.6,-6.6%,-1.3%,-0.3%,-4.0
COc1cccc(C(=O)NCC2(c3ccccc3)CCCC2)c1OC,nt,-21.1,2.6,-2.4%,9.1%,2.3%,nt
CN(C(=O)COC(=O)c1ccccc1OCc1ccc(F)cc1)C1CCS(=O)(=O)C1 (configuration not stated),3.1,-1.5,nt,-8.9%,nt,0.4%,-7.5
CCOC(=O)Nc1ccc2c(c1)N(C(=O)OCCN(C)C)c1ccccc1CC2,1.8&0.2,13.2&-7.1,1.7&5.6,-1.6%&0.5%,4.2%&0.9%,1.5%&1.2%,17.7&0.3
COc1ccccc1CNC(=O)C1CCCN(S(=O)(=O)c2cccc3cccnc23)C1 (configuration not stated),0.4,-1.3,-2.6,-0.2%,8.9%,4.5%,-18.2
